E coli growth – E. coli growth inhibition, primary screen, OD600 | Escherichia coli growth, 23 h; stronger effect = lower value | OD600 absorbance (no concentration beside the values) | 330,000 tested, 0.21% active;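 active means OD600 absorbance below the run mean of sample wells minus 3.6 SD, in any replicate, cut at about 0.56 in these data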;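 further: stock transfer was 300 nL into about 60 µL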
* marks the source's active call; other numbers are inactive results; & = joins results of further samples. Not all compounds are listed. The share of hits here may be higher or lower than overall.

SMILES	E coli growth
CC[C@]12C(=O)N(C)CC(C3C(=O)N(C)C(=O)C31)N2C(=O)c1ccc(C(C)(C)C)cc1 (some centres not stated)	0.68
CCC(C)C(CNC(CNC)C(C)O)NCCc1ccc(OC)cc1 (configuration not stated)	0.71
CCC(C)C1CNC(=O)C(=O)N1CCCc1cc(OC)c(OC)c(OC)c1 (configuration not stated)	0.67
COc1ccc(C2CC(=O)C=C(c3ccc4ccn(C)c4c3)C2)cc1 (configuration not stated)	0.67
NC(=O)C1CCCNc2c(F)cc([N+](=O)[O-])cc2C(=O)NC(CO)C(=O)NC(Cc2ccc(O)cc2)C(=O)N1 (configuration not stated)	0.73
O=C(Nc1ccccc1)C1=CC(C2CCCCC2)CC(OCc2ccc(CO)cc2)O1 (configuration not stated)	0.7&0.68
CCN1C(=O)C2C(c3ccc(C)cc3)N3C(=O)N(c4ccc(OC)cc4)C(=O)[C@@]3(C)C2C1=O (some centres not stated)	0.67
O=C(C1=CC(C2CC2)CC(OCCCCO)O1)N1CCOCC1 (configuration not stated)	0.7&0.68
C#CCOCCOCCOCCNc1nc(N2CCN(C(=O)C(C(C)CC)n3cc(CCCCN)nn3)CC2)nc(N2CCN(C(=O)C(C(C)CC)n3cc(CCCN=C(N)N)nn3)CC2)n1 (configuration not stated)	0.65
CCOC(=O)c1cccc(C2=CC(=O)CC(c3ccc(Cl)cc3)C2)c1 (configuration not stated)	0.71
CC(C)CC1CNC(=O)C(=O)N1CC(C)NC(=O)Cc1ccccc1 (configuration not stated)	0.68
CC(=O)CC(O)CC(=O)C1OC(=O)C(C)CC=CCc2ccccc21 (configuration not stated)	0.7
C=C1C(=O)OC2CC(C)C3C=CC(=O)[C@@]3(C)C(OC(C)=O)C12 (some centres not stated)	0.71
O=C1CCC(CN(Cc2ccccn2)Cc2nc(Cc3cccc(C(F)(F)F)c3)no2)N1 (configuration not stated)	0.69
Cc1ccccc1NC(=O)C=C1SC(=O)NC1=O	0.7
C=C1CCN(C(CC(C)C)C(=O)NCc2ccc(Cl)cc2)S(=O)(=O)c2ccccc21 (configuration not stated)	0.7
Cc1ccccc1CN1C(C(C)C)COCCS1(=O)=O (configuration not stated)	0.68
COc1cccc(C2CC=C(C(=O)O)C(c3ccc(F)cc3)N2S(=O)(=O)c2ccc(C)cc2)c1 (configuration not stated)	0.67
NCCCCC1NC(=O)C(CCC(=O)O)NC(=O)c2cc([N+](=O)[O-])cc(I)c2OCCC(C(N)=O)NC1=O (configuration not stated)	0.7
COc1ccc(C2C3C(=O)N(C(C)(C)C)C(=O)C3[C@]3(CC(C)C)C(=O)N(c4cccc(F)c4)C(=O)N23)cc1 (some centres not stated)	0.68
CC(C)(C)C1C=C(C(=O)NCc2nc3ccccc3[nH]2)OC(OCc2ccc(CO)cc2)C1 (configuration not stated)	0.67
CCC(C)CCN1C(N(C)C)=NCC1Cc1ccccc1 (configuration not stated)	0.66
Cc1cccc(C(N)=NOC(=O)CCCN2C(=O)c3ccccc3C2=O)c1	0.67
O=C(C=Cc1ccc2c(c1)OCO2)NC1(C(=O)Nc2ccc3c(c2)OCO3)CCCCC1	0.69
CCCCCC1CN(Cc2ccccc2)C(=O)C1CC(=O)NCc1ccccc1 (configuration not stated)	0.67
O=C(Cc1cccs1)NN=CC=Cc1ccccc1[N+](=O)[O-]	0.74
COC(=O)[C@@]12CCCN1C(c1ccc(SC3CCCCC3)cc1)C1C(=O)N(C)C(=O)C12 (some centres not stated)	0.69
Cc1ccc(C2C3C(=O)N(C)C(=O)C3[C@]3(Cc4ccccc4)C(=O)N(CCO)CC(=O)N23)o1 (some centres not stated)	0.72
O=C1CCCCC=CCC(CC(=O)N(CCO)Cc2ccccc2)C(=O)NCC(c2ccccc2)O1 (configuration not stated)	0.66
CCOC(=O)CN1C(=O)NC(c2ccco2)C(C(=O)OC)=C1C (configuration not stated)	0.69
CC(C)(O)CCC(O)[C@](C)(O)C1CC[C@@]2(O)C3=CC(=O)C4CC(O)C(O)C[C@]4(C)C3CC[C@]12C (some centres not stated)	0.7&0.67
O=C(NC(c1ccccc1)C1CC1C(=O)NCc1ccccn1)OCc1ccccc1 (configuration not stated)	0.69
CC(C)(C)OC(=O)CC1CC=CCC(CC(=O)NCCO)C(=O)NCC(c2ccccc2)OC1=O (configuration not stated)	0.63&0.7&0.72&0.65&0.68&0.69
COCCNC(=O)C(C)C1C[C@]1(C)C(NC(=O)OCc1ccccc1)c1ccccc1 (some centres not stated)	0.63
CC1CN(C(C)CO)C(=O)c2cccc(NC(=O)c3ccc(-c4nccs4)cc3)c2OC1CN(C)C(=O)Nc1cccc2ccccc12 (configuration not stated)	0.57
c1ccc(CC2CNCCN2CCCCC2CCCCC2)cc1 (configuration not stated)	0.6
Cn1c(C(C#N)=C2CCCCCN2)nc2ccccc21	0.69
C#CCCOC(=O)N1C2=NC(C(=O)OC)=C(C(=O)OC)C3N(C)c4ccccc4[C@]23CC1CO (some centres not stated)	0.68
C#CCOCCOCCOCCNc1nc(N2CCN(C(=O)Cn3cc(CC(C)O)nn3)CC2)nc(N2CCN(C(=O)C(CCCCN)n3cc(CCC(=O)O)nn3)CC2)n1 (configuration not stated)	0.71
COc1cc(OC)cc(-c2oc(=O)c3cc(OC)c(OC)cc3c2C=Cc2ccc(F)cc2)c1	0.72

Part of the list above, bar-delimited:
molecule | E coli growth
CC(C)(O)CCC(O)[C@](C)(O)C1CC[C@@]2(O)C3=CC(=O)C4CC(O)C(O)C[C@]4(C)C3CC[C@]12C (some centres not stated) | 0.7&0.67
O=C(NC(c1ccccc1)C1CC1C(=O)NCc1ccccn1)OCc1ccccc1 (configuration not stated) | 0.69

Following part.
SMILES	E coli growth
COc1ccc(C2CC=C(C(=O)O)C(c3ccc(Cl)cc3)N2S(=O)(=O)c2ccccc2C)cc1 (configuration not stated)	0.7
CC1C=C(C(=O)N2CCN(Cc3ccc4c(c3)OCO4)CC2)OC(OCCCCO)C1 (configuration not stated)	0.69
Cc1nn(-c2ccccc2)c(Cl)c1C=C(CC(=O)O)c1nc2ccccc2s1	0.67
COC(=O)C1=C(C(=O)OC)C2N(C)c3ccccc3[C@@]23CC(CO)N=C3N1 (some centres not stated)	0.67
COC(=O)N1C(C)C=C[C@]1(Cc1ccccc1)C(=O)NCCCNc1ncc(C(F)(F)F)cc1Cl (some centres not stated)	0.69
COc1cc2c(cc1OC)C(=O)N1C3c4ccccc4OCC3C(c3ccccc3)[C@]1(C)C(=O)N2 (some centres not stated)	0.72
C#CCOCCOCCOCCNc1nc(N2CCOCC2)nc(N2CCN(C(=O)C(C)n3cc(CCCN=C(N)N)nn3)CC2)n1 (configuration not stated)	0.71
C=CS(=O)(=O)N(Cc1ccccc1)C(CO)CC(C)C (configuration not stated)	0.69
C#CCOCCOCCOCCNc1nc(N2CCOCC2)nc(N2CCN(C(=O)CCCCCCCCCCNC(=O)C(CCC(=O)O)n3cc(CCCCCN)nn3)CC2)n1 (configuration not stated)	0.63
CCOc1ccc(C(O)=C2C(=O)C(=O)N(c3nc(C)c(C)s3)C2c2ccco2)cc1 (configuration not stated)	0.69
CC1CN(C(C)CO)C(=O)c2cc(NC(=O)c3ccncc3)ccc2OC1CN(C)C(=O)Nc1ccccc1 (configuration not stated)	0.7
CN1CC2C3C(=O)N(Cc4ccccc4)C(=O)C3[C@](Cc3ccccc3)(C1=O)N2C(=O)c1ccc(C(C)(C)C)cc1 (some centres not stated)	0.67
Cc1ccc(C2=CC(=O)CC(c3ccc4c(c3)OCO4)C2)cc1 (configuration not stated)	0.69
C[C@@]12C(=O)N(Cc3ccccc3)CC(=O)N1C1c3ccccc3OCC1C2c1ccccc1 (some centres not stated)	0.7
Cc1ccc(SCC(c2ccccc2)N2CCN(C)CCC2=O)cc1 (configuration not stated)	0.68
C#CCOCCOCCOCCNc1nc(N2CCN(C(=O)C(CCCCN)n3cc(CN)nn3)CC2)nc(N2CCN(C(=O)C(CCCCN)n3cc(C(N)C(C)CC)nn3)CC2)n1 (configuration not stated)	0.69
COc1ccc(C2C=CCN(C(=O)C3CC3)C(C)C(=O)N2Cc2ccc(F)cc2)cc1 (configuration not stated)	0.67
CCC(=O)c1c(CC)c2n3c1CCC3CCC2 (configuration not stated)	0.69
CC(NC(=O)OCc1ccccc1)c1nnc(C(Cc2ccccc2)NC(=O)OC(C)(C)C)o1 (configuration not stated)	0.67
C#CCOCCOCCOCCNc1nc(N2CCN(C(=O)Cn3cc(CCO)nn3)CC2)nc(N2CCN(C(=O)C(C(C)CC)n3cc(CCCN=C(N)N)nn3)CC2)n1 (configuration not stated)	0.69
O=C(C=Cc1cccs1)NCc1cccnc1	0.68
O=c1oc(CCCO)cc2ccc(C=Cc3cccc([N+](=O)[O-])c3)cc12	0.64
CC(=O)N1c2ccc(F)c(F)c2CC1C (configuration not stated)	0.6
COc1cccc(C2CC=C(C(=O)O)CN2S(=O)(=O)c2ccc(C)cc2)c1 (configuration not stated)	0.68
COc1ccccc1Oc1ccc(NC=CC(=O)C(C)(C)C)cc1	0.67
C#CCOCCOCCOCCNc1nc(N2CCN(C(=O)C(Cc3ccc(O)cc3)n3cc(C(N)C(C)CC)nn3)CC2)nc(N2CCN(C(=O)C(C(C)CC)n3cc(C(N)CO)nn3)CC2)n1 (configuration not stated)	0.67
CC(C)(C)N1CC23C=CC(CC2C1=O)O3 (configuration not stated)	0.69
CC(C)NC(=O)Nc1ccc2c(c1)C(=O)N(C(C)CO)CC(C)C(CN(C)S(=O)(=O)c1cccs1)O2 (configuration not stated)	0.62
COC(=O)C1CC1C(NS(=O)(=O)c1ccc2ccccc2c1)c1ccccc1 (configuration not stated)	0.69
CC(NC(=O)c1nc[nH]c1C(=O)NC(C)C(=O)OCc1ccccc1)C(=O)OCc1ccccc1 (configuration not stated)	0.7
CC(C)CC(NC(=O)OC(C)(C)C)C(=O)NC(CO)C(O)C1CC1C(=O)NC1CC1 (configuration not stated)	0.69
O=C(C1=CC(c2ccc3c(c2)OCO3)CC(OCc2ccc(CO)cc2)O1)N1CCCCCCC1 (configuration not stated)	0.71
CC(C)CC(NC(=O)c1nc[nH]c1C(=O)N1CCN(c2ccccc2)CC1)C(=O)OC(C)(C)C (configuration not stated)	0.69
O=C(CN1C(=O)C(=Cc2ccccc2)SC1=S)Nc1cccnc1	0.74
COc1ccc(OC2C=CC(c3ccccc3)OC2CON=C(C)CCC(=O)OCC2OC(c3ccccc3)C=CC2Oc2ccc(OC)cc2)cc1 (configuration not stated)	0.74
NC(=NOC(=O)C=Cc1ccccc1)c1ccc(Br)cc1	0.71
COc1ccc(C=Cc2c(-c3ccc(OC)cc3)oc(=O)c3cc(OC)c(OC)cc23)cc1	0.74
Cc1nc(SC(=Cc2ccc(-c3cccc(Cl)c3)o2)C(=O)O)n[nH]1	0.69
CC1CN(C(C)CO)C(=O)c2cccc(NC(=O)c3ccncc3)c2OC1CN(C)S(=O)(=O)c1ccccc1 (configuration not stated)	0.67
COc1cccc(-c2cn(CC3CCC(C4CCC(Cn5cc(-c6cccc(OC)c6)nn5)O4)O3)nn2)c1 (configuration not stated)	0.7

Quoted from the listing:
Under E coli growth, CC(C)CC(NC(=O)c1nc[nH]c1C(=O)N1CCN(c2ccccc2)CC1)C(=O)OC(C)(C)C (configuration not stated) has 0.69
Under E coli growth, NC(=NOC(=O)C=Cc1ccccc1)c1ccc(Br)cc1 has 0.71
Under E coli growth, CC1CN(C(C)CO)C(=O)c2cccc(NC(=O)c3ccncc3)c2OC1CN(C)S(=O)(=O)c1ccccc1 (configuration not stated) has 0.67
Under E coli growth, O=C(CN1C(=O)C(=Cc2ccccc2)SC1=S)Nc1cccnc1 has 0.74

Following part
SMILES	E coli growth
CC(NC(=O)c1ncn(Cc2ccccc2)c1C(=O)NC(C)c1ccccc1)c1ccccc1 (configuration not stated)	0.71&0.73
O=C(O)C1=CC(c2ccccc2)CC(OCc2ccc(CO)cc2)O1 (configuration not stated)	0.68
COc1ccc(C=Cc2c(-c3ccc(OC)cc3)oc3ccccc23)cc1	0.66
COc1ccc(Cl)cc1C1=CC(=O)CC(c2ccc(F)cc2)C1 (configuration not stated)	0.68
CCCC=C(CCC)C(NC(=O)c1ccc(C(F)(F)F)cc1)c1ccccc1 (configuration not stated)	0.69
CC1CC=CC2C1C(=O)N(Cc1ccccc1)C2c1ccc(-c2ccc(N(C)C)cc2)cc1F (configuration not stated)	0.74
NC(=O)C1CC2(CC(c3cccc(NC(=O)COc4ccc(Cl)cc4)c3)=NO2)CN1C(=O)Cc1ccc([N+](=O)[O-])cc1 (configuration not stated)	0.69
CCCCCCCN1CCC(=O)N(C(CO)Cc2ccccc2)CC1 (configuration not stated)	0.68
CCOC(=O)C1C2COc3cc(OC)ccc3C2N2C(=O)N(c3cccc(F)c3)C(=O)[C@@]12C (some centres not stated)	0.65&0.7&0.69
CCCCCCCCCNC(=O)C(NC(=O)COc1ccccc1)C1NC(C(=O)OC)C(C)(C)S1 (configuration not stated)	0.72
O=C(C=Cc1ccccc1)N1CCCC1CO (configuration not stated)	0.64
CC=CC(=O)Nc1cccc(C2=NOC3(C2)CC(C(N)=O)N(C(=O)C2CCC(=O)N2)C3)c1 (configuration not stated)	0.7
Cc1cccc(C2=NN(c3ccc(Br)cc3)C(C(=O)N3CCOC3=O)C2c2ccc(F)cc2)c1 (configuration not stated)	0.73
CC(C)(C)C1COC(=O)C(Cc2ccc(F)cc2)CC=CCC(CC(=O)NC(CO)Cc2ccccc2)C(=O)N1 (configuration not stated)	0.66&0.68
CC1COC(=O)C(Cc2ccc(F)cc2)CCC=CCC(CC(=O)N(CCO)Cc2ccccc2)C(=O)N1 (configuration not stated)	0.7&0.68

Another view of 4 compounds above.
CC1CN(C(C)CO)C(=O)c2cc(NC(=O)c3ccncc3)ccc2OC1CN(C)C(=O)Nc1ccccc1 (configuration not stated)
  E coli growth: 0.7
CN1CC2C3C(=O)N(Cc4ccccc4)C(=O)C3[C@](Cc3ccccc3)(C1=O)N2C(=O)c1ccc(C(C)(C)C)cc1 (some centres not stated)
  E coli growth: 0.67
Cc1ccc(C2=CC(=O)CC(c3ccc4c(c3)OCO4)C2)cc1 (configuration not stated)
  E coli growth: 0.69
C[C@@]12C(=O)N(Cc3ccccc3)CC(=O)N1C1c3ccccc3OCC1C2c1ccccc1 (some centres not stated)
  E coli growth: 0.7

Screens: PubChem BioAssay, ICCB-Longwood Screening Facility, Harvard Medical School
